Bioassay records deposited in PubChem by Broad Institute.
DUX4 txn inh: blocks DUX4-driven transcriptional activation; 293T-iDUX4 ZSCAN4-Gaussia luciferase reporter, 24 h; stronger effect = lower value; hit rate 0.8% among 37,000; AID 1224904; activity change, negative = inhibition, % (concentration not given with the values);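 active = -10% or lower and over 25 points stronger than a control reporter; inconclusive = -10% or lower with a smaller gap; inactive = above -10%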;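 note: 0% = median of neutral control wells and -100% = median of positive control wells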
DUX4 txn inh difference: second read-out of DUX4 txn inh, no call of its own (marks repeat the call); Gaussia minus Italica difference, %; measured here: selective DUX4 reporter inhibition;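 worked out from the two reporters; negative = selective loss of the DUX4 reporter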
DUX4 txn inh control: further read-out of DUX4 txn inh, marked with its call; activity change, negative = inhibition, %; measured here: Italica tet-on control reporter;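 0 = neutral control and -100 = positive control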
* hit, by the source's call; ? = inconclusive; . = not tested or not shown; & = joins results of further samples. Some of the compounds tested; count on the stated rates, not on these rows.

Start of the data: the first 11 compounds (preview)
SMILES	DUX4 txn inh	DUX4 txn inh difference	DUX4 txn inh control
C[C@@H]1CN([C@@H](C)CO)C(=O)c2cc(NS(=O)(=O)c3cccs3)ccc2O[C@@H]1CN(C)Cc1ccc(C(=O)O)cc1	0	-4	4.6
CC(=O)N1CC(=O)N2[C@H](CO)[C@H](c3ccc(-c4cccc(C(=O)N(C)C)c4)cc3)[C@@H]2C1	-2	-8	6.0
CCS(=O)(=O)N1CC2(C1)CN(S(=O)(=O)c1cccc(OC)c1)[C@H](CO)c1[nH]c3cc(OC)ccc3c12	0	3	-2.7
Cc1cccc(S(=O)(=O)N(C)C[C@@H]2OCc3cnnn3CCCC(=O)N([C@H](C)CO)C[C@@H]2C)c1	-3	-1	-1.5
N#C[C@H]1[C@H](c2ccccc2)[C@@H](CO)N1C(=O)Cc1ccccn1	0	-1	1.3
COc1ccccc1C#Cc1ccc2c(c1)[C@@H]1[C@@H](CCN1C(=O)Cc1ccccc1)[C@H](CO)N2	4	0	4.9
O=C([C@@H]1[C@@H](CO)[C@@H]2Cn3c(ccc(-c4ccncc4)c3=O)[C@H]1N2Cc1cccnc1)N1CCOCC1	-4	-6	2.2
C[C@@H]1CN([C@@H](C)CO)C(=O)Cc2cc(NC(=O)Cn3cnnn3)ccc2O[C@H]1CN(C)C(=O)Nc1ccc(C(F)(F)F)cc1	2	-1	2.4
CN(C)CC(=O)N1[C@@H](C#N)[C@H](c2ccc(C#CC3CCCCC3)cc2)[C@@H]1CO	-3	0	-2.5
CC(=O)Nc1ccc2c(c1)C(=O)N(C)[C@@H]1CC[C@@H](CC(=O)NCc3ccc(Cl)cc3)O[C@H]1CO2	-1	2	-2.3
Fc1ccc(CN2[C@@H]3CNC[C@H]2C3c2ccc(-c3ccncc3)cc2)cc1 (some centres not stated)	14&18	13&4	0.8&14

All compounds of this part, previewed entries included:
SMILES	DUX4 txn inh	DUX4 txn inh difference	DUX4 txn inh control
C[C@@H]1CN([C@@H](C)CO)C(=O)c2cc(NS(=O)(=O)c3cccs3)ccc2O[C@@H]1CN(C)Cc1ccc(C(=O)O)cc1	0	-4	4.6
CC(=O)N1CC(=O)N2[C@H](CO)[C@H](c3ccc(-c4cccc(C(=O)N(C)C)c4)cc3)[C@@H]2C1	-2	-8	6.0
CCS(=O)(=O)N1CC2(C1)CN(S(=O)(=O)c1cccc(OC)c1)[C@H](CO)c1[nH]c3cc(OC)ccc3c12	0	3	-2.7
Cc1cccc(S(=O)(=O)N(C)C[C@@H]2OCc3cnnn3CCCC(=O)N([C@H](C)CO)C[C@@H]2C)c1	-3	-1	-1.5
N#C[C@H]1[C@H](c2ccccc2)[C@@H](CO)N1C(=O)Cc1ccccn1	0	-1	1.3
COc1ccccc1C#Cc1ccc2c(c1)[C@@H]1[C@@H](CCN1C(=O)Cc1ccccc1)[C@H](CO)N2	4	0	4.9
O=C([C@@H]1[C@@H](CO)[C@@H]2Cn3c(ccc(-c4ccncc4)c3=O)[C@H]1N2Cc1cccnc1)N1CCOCC1	-4	-6	2.2
C[C@@H]1CN([C@@H](C)CO)C(=O)Cc2cc(NC(=O)Cn3cnnn3)ccc2O[C@H]1CN(C)C(=O)Nc1ccc(C(F)(F)F)cc1	2	-1	2.4
CN(C)CC(=O)N1[C@@H](C#N)[C@H](c2ccc(C#CC3CCCCC3)cc2)[C@@H]1CO	-3	0	-2.5
CC(=O)Nc1ccc2c(c1)C(=O)N(C)[C@@H]1CC[C@@H](CC(=O)NCc3ccc(Cl)cc3)O[C@H]1CO2	-1	2	-2.3
Fc1ccc(CN2[C@@H]3CNC[C@H]2C3c2ccc(-c3ccncc3)cc2)cc1 (some centres not stated)	14&18	13&4	0.8&14
C[C@@H]1CN([C@@H](C)CO)C(=O)c2cccc(NC(=O)c3ccncc3)c2O[C@@H]1CN(C)Cc1ccc2c(c1)OCO2	1	0	0.5
CO[C@@H]1CN(C)C(=O)c2ccc(NC(=O)NC(C)C)cc2OC[C@@H](C)N(Cc2ccccn2)C[C@@H]1C	-2	-7	5.4
C[C@H](NC(=O)N(C)C[C@H]1OCc2ccccc2-c2c(n(C)c3ccccc23)C(=O)N([C@@H](C)CO)C[C@H]1C)c1ccccc1	-10	-4	-6.0
C[C@@H]1CN([C@@H](C)CO)S(=O)(=O)c2ccc(-c3ccc(C#N)cc3)cc2O[C@@H]1CN(C)Cc1cccc(F)c1	0	-1	0.9
CC=Cc1ccc2n(c1=O)C[C@H]1[C@H](CO)[C@@H](C(=O)NCC3CCCCC3)[C@@H]2N1C(C)=O (mixture of isomers)	0	-6	6.5
CN(C)CC(=O)N1CC2(C1)[C@@H](c1ccccc1)[C@H](CO)N2C(=O)C1CC1	1	4	-2.8
CCCNC(=O)C[C@@H]1CC[C@H]2[C@@H](COc3ccc(NC(=O)c4ccc(Cl)cc4)cc3C(=O)N2C)O1	-2	-4	1.9
CC(C)C#Cc1ccc([C@@H]2[C@H](CO)N3C(=O)CN(C(=O)Cc4ccccc4)C[C@@H]23)cc1	6	4	1.6
COc1ccc2c3c([nH]c2c1)[C@H](CO)N(C(C)=O)CC31CN(C(=O)CN2CCOCC2)C1	14	-6	20
C[C@H](NC(=O)[C@@H]1[C@@H](CO)[C@@H]2Cn3c(ccc(C4=CCCC4)c3=O)[C@@H]2N1C)c1ccccc1	14	8	5.1
COc1ccc2c3c([nH]c2c1)[C@H](CO)N(C(=O)c1ccccc1)CC31CN(S(=O)(=O)c2cccs2)C1	-10	-6	-3.4
Cc1ccccc1-c1ccc([C@H]2[C@H](CO)N3CCCCN(C(=O)CN4CCOCC4)C[C@@H]23)cc1	32	20	13
COc1cccc(-c2ccc(C3[C@@H]4CN(Cc5cccc(F)c5)C[C@H]3N4)cc2)c1 (some centres not stated)	?	.	.
COc1cccc(S(=O)(=O)Nc2ccc3c(c2)[C@H]2C[C@H](CC(=O)NCCc4ccccc4)O[C@H](CO)[C@H]2O3)c1	?	.	.
O=C(C[C@@H]1CC[C@H]2[C@@H](COC[C@@H](O)CN2S(=O)(=O)c2cccc(Cl)c2)O1)Nc1ccc(-c2ccccc2)cc1	?	.	.
COc1cccc(-c2ccc([C@@H]3[C@H](CO)N4CCCCN(Cc5cncnc5)C[C@@H]34)cc2)c1	4	-2	5.8
CO[C@H]1CN(C)C(=O)c2ccc(NC(=O)NC(C)C)cc2OC[C@H](C)N(Cc2ccc(-c3ccccn3)cc2)C[C@@H]1C	0	-1	1.1
Cc1ccc(S(=O)(=O)N(C)C[C@H]2OCc3ccccc3-c3c(n(C)c4ccccc34)C(=O)N([C@@H](C)CO)C[C@@H]2C)cc1	-6	-4	-2.4
CC(C)NC(=O)N1C[C@@H]2[C@H](c3ccccc31)[C@H](CO)N2C(=O)C1CCCC1	-2	-1	-1.5
O=C(NC1CCCC1)N1CCCCN2[C@H](CO)[C@H](c3ccc(-c4ccccc4)cc3)[C@H]2C1	?	.	.
COCC#Cc1ccc2c(c1)O[C@@H](CN(C)C(=O)C1CCOCC1)[C@@H](C)CN([C@@H](C)CO)S2(=O)=O	-5	-2	-3.3
CC(=O)NC[C@H]1[C@H](c2ccccc2)[C@@H](CO)N1C(=O)Cc1cccnc1	-3	1	-4.6
C/C=C/c1ccc([C@H]2[C@@H](CO)N(Cc3cncnc3)C23CN(C(=O)COC)C3)cc1	-6	-8	2.0
CC(=O)N1C[C@H]2[C@@H](c3ccccc31)[C@@H](CO)N2C(=O)CC1CC1	-3	-5	1.1
CN(C)CC(=O)Nc1ccc2c(c1)[C@@H]1C[C@H](CC(=O)NCCc3ccccc3)O[C@H](CO)[C@@H]1O2	1	-6	7.2
COc1ccc2c3c([nH]c2c1)[C@H](CO)N(C(=O)NC(C)C)CC31CCN(C(=O)C2CCCCC2)CC1	-10	4	-14
C[C@@H]1CN([C@@H](C)CO)C(=O)c2cccc(N(C)C)c2O[C@@H]1CN(C)Cc1ccncc1	0	1	-1.0
Cc1ccccc1NC(=O)Nc1ccc2c(c1)C(=O)N(C)[C@@H]1CC[C@@H](CC(=O)NCC3CC3)O[C@@H]1CO2	0	0	0.4
CCCNC(=O)N1[C@@H](C#N)[C@H](c2ccc(C3=CCCCC3)cc2)[C@@H]1CO	-2	-7	5.2
CN1C(=O)c2cc(NC(=O)Nc3ccccc3F)ccc2OC[C@H]2O[C@@H](CC(=O)NCc3ccc(-c4ccccc4)cc3)CC[C@H]21	3	-5	8.2
O=C(NCCN1CCCCC1)[C@@H]1[C@@H](CO)[C@@H]2Cn3c(cccc3=O)[C@H]1N2C(=O)C1CC1	4	-3	7.7
CCCNC(=O)Nc1ccc2c(c1)C(=O)N(C)C[C@@H](OC)[C@H](C)CN(C(=O)C1CCCCC1)[C@H](C)CO2	0	3	-2.8
CCC(=O)Nc1ccc2c(c1)OC[C@H](C)N(CC1CC1)C[C@H](C)[C@H](OC)CN(C)C2=O	0	-2	2.4
O=C(C[C@@H]1CC[C@@H]2[C@H](COC[C@@H](O)CN2Cc2cccc(C(F)(F)F)c2)O1)NCc1ccncc1	22	22	0.0
C[C@@H]1CN([C@@H](C)CO)S(=O)(=O)c2ccc(C3=CCCCC3)cc2O[C@@H]1CN(C)C(=O)Nc1ccc2c(c1)OCO2	1	1	0.2
O=C(O)C[C@@H]1C[C@@H]2c3cc(NC(=O)c4ccc5c(c4)OCO5)ccc3O[C@@H]2[C@H](CO)O1	6	3	3.1
C[C@@H]1CCCCO[C@H](CN(C)C(=O)Cc2ccccc2)[C@@H](C)CN([C@@H](C)CO)C(=O)c2cc(NS(C)(=O)=O)ccc2O1	-1	-2	1.5
CC(C)NC(=O)Nc1ccc2c(c1)C(=O)N([C@@H](C)CO)C[C@H](C)[C@@H](CN(C)S(=O)(=O)c1ccc(F)cc1)OCCCC[C@@H](C)O2	7	1	5.6
COc1ccccc1NC(=O)Nc1ccc2c(c1)C(=O)N(C)[C@H]1CC[C@H](CC(=O)Nc3ccc4c(c3)COC4)O[C@@H]1CO2	-6	-5	-1.1
O=C(NC1CCC1)[C@H]1[C@H](CO)[C@H]2Cn3c(ccc(-c4ccccc4)c3=O)[C@@H]1N2	-1	-3	1.7
O=C(N[C@@H]1CC[C@H](CCn2cc(-c3ccccc3)nn2)O[C@H]1CO)c1ccccc1F	?	.	.
COc1ccc(CN2C[C@H](O)COC[C@H]3O[C@@H](CC(=O)NCc4ccncn4)CC[C@@H]32)cc1	14	3	11
C/C=C/c1ccc([C@@H]2[C@@H](CN(CCC)C(C)=O)N(C(C)=O)[C@H]2CO)cc1	1	1	0.1
C[C@@H]1CCCCO[C@@H](CN(C)C(=O)CCC(F)(F)F)[C@@H](C)CN([C@@H](C)CO)C(=O)c2cc(NS(=O)(=O)c3cccs3)ccc2O1	-1	-1	-0.4
CN1c2ccc(-c3ccccc3F)cc2[C@H]2[C@H](CCN2C(=O)Nc2cc(F)ccc2F)[C@H]1CO	-5	-10	4.9
Cc1noc(C)c1NC(=O)N(C)C[C@@H]1Oc2ccc(NC(=O)Cc3cn(C)c4ccccc34)cc2CC(=O)N([C@H](C)CO)C[C@H]1C	2	4	-1.5
C[C@@H]1CN([C@H](C)CO)C(=O)CCCn2nncc2CO[C@@H]1CN(C)C(=O)CCC(F)(F)F	3	8	-5.1
C[C@@H]1CCCCO[C@H](CN(C)CC2CCCCC2)[C@H](C)CN([C@H](C)CO)C(=O)c2cc(NC(=O)C3CCCCC3)ccc2O1	2	2	-0.5
C[C@H](CO)N1C[C@H](C)[C@@H](CN(C)C(=O)Nc2ccc(F)cc2)OCc2ccccc2-c2ccccc2C1=O	17	16	0.6

(further entries)
SMILES	DUX4 txn inh	DUX4 txn inh difference	DUX4 txn inh control
CN1CCCCN2[C@H](CO)[C@H](c3ccc(/C=C/c4ccccc4)cc3)[C@H]2C1	2	10	-7.8
COC(=O)C[C@@H]1C[C@H]2c3cc(NC(=O)CN(C)C)ccc3O[C@H]2[C@@H](CO)O1	5	7	-1.3
CN(C)C(=O)c1ccc(-c2ccc([C@H]3[C@@H](C#N)N(C(=O)Nc4ccccc4F)[C@H]3CO)cc2)cc1	0	-2	1.9
CNC[C@H]1Oc2ncc(-c3ccccc3C)cc2C(=O)N([C@@H](C)CO)C[C@H]1C	-1	0	-1.0
CC(C)NC(=O)Nc1ccc2c(c1)C(=O)N(C)[C@H]1CC[C@@H](CC(=O)NCC(F)(F)F)O[C@@H]1CO2	-2	3	-5.1
C[C@@H]1CN([C@@H](C)CO)C(=O)c2cc(/C=C/c3ccccc3)cnc2O[C@@H]1CN(C)C(=O)Cc1ccccn1	-3	-2	-0.7
O=C(C[C@@H]1CC[C@H]2[C@@H](COC[C@@H](O)CN2Cc2ccccc2F)O1)NC1CCC1	-2	-2	-0.5
C[C@H]1CN([C@@H](C)CO)C(=O)CCCn2cc(nn2)CO[C@H]1CN(C)Cc1ccccc1C(F)(F)F	?	.	.
O=C(C[C@H]1CC[C@H]2[C@@H](COC[C@@H](O)CN2C(=O)Nc2ccc(F)cc2)O1)NC1Cc2ccccc2C1	0	-2	2.1
Cc1cccc(CN(C)C[C@@H]2OCc3cnnn3CCCC(=O)N([C@@H](C)CO)C[C@@H]2C)c1	-9	-9	0.1
COc1ccc2c3c(n(C)c2c1)[C@@H](CO)N(C(=O)Nc1ccccc1F)CC31CN(C)C1	0	-9	9.3
O=C(C[C@H]1CC[C@H]2[C@@H](COC[C@@H](O)CN2Cc2ccc(C(F)(F)F)cc2)O1)N1CCc2ccccc2C1	?	.	.
O=C(CN1CCOCC1)N1CCCCN2[C@H](CO)[C@H](c3ccc(C#Cc4ccccc4F)cc3)[C@H]2C1	-10	1	-11
C[C@H](CO)N1C[C@H](C)[C@@H](CN(C)C(=O)c2ccccc2F)Oc2ncc(C#C[C@@H](C)O)cc2C1=O	0	-2	2.5
C[C@H]1CN([C@@H](C)CO)C(=O)CCCn2cc(nn2)CO[C@@H]1CN(C)Cc1ccc2cccnc2c1	4	9	-4.6
CCCC#Cc1cnc2c(c1)C(=O)N([C@H](C)CO)C[C@H](C)[C@@H](CN(C)C(=O)C1CCC1)O2	5	3	2.1
